Yeast UUG start: alters start codon recognition fidelity in yeast | activity score, % at 18.7 µM | 350,000 compounds, 0.13% hits | AID 602363 | S. cerevisiae UUG-firefly luciferase reporter, luminescence/redox ratio;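 active = replicate mean at a twofold rise or more, about +100% in these data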;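 note: firefly luciferase made from a UUG start codon reports start codon fidelity; reporter light over untreated wells divided by growth signal over untreated wells; some hits fall short of that in this replicate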
MT1-MMP act inh: MT1-MMP (human) activation inhibition; 360,000 compounds, 0.061% hits; GFP/RFP ratio change, % at 20 µM; AID 651647; P50281; HT1080 RFP-PRO-GFP cells, GFP/RFP ratio fluorescence, overnight; percent of plate control window, DMSO zero;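 active = GFP/RFP ratio change of at least 30% with cell ATP level not reduced by more than half and red fluorescence within 50% of control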; note: strong numbers were not always called active
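Read-out: GFP/RFP fluorescence ratio; Test system: RFP-PRO-GFP reporter HT1080 cells; Compound dosing: single-point 20 µM compound, 1% DMSO; Times: overnight compound exposure at 37 °C.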
Env fusion inh: HIV envelope-mediated fusion inhibition; HeLa-JRFL Env/CEM21 cell fusion, luciferase; inhibition, % at 12.3 µM; 360,000 compounds, 1.1% hits; AID 651610;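 active = mean replicate inhibition score of at least 50 and every replicate individually at or above 50; inconclusive = only one of the two criteria met; inactive = mean below 50 and not all replicates reaching 50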;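 note: 0% = plate neutral controls and 100% = maraviroc near 300 nM; one replicate is shown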
PABP polyA inh: blocks human PABP binding to poly(A) RNA; P11940; fluorescence polarization; inhibition, % at 35 µM; 290,000 compounds, 1% hits; AID 2014;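 active = 50% or more with normal probe brightness, or confirmed in later tests; inconclusive = above 50% with abnormal brightness, or retests that disagree; inactive = below 50% or failed in later tests; about a fifth of its hits are not listed in these tables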;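 note: calls also rest on retests at 20 µM and on dose response follow-up; controls were probe without protein and protein plus probe with vehicle; some compounds called inactive have numbers as strong as hits; many hits fall short of the cut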
Target sequence (P11940 whole entry, looked up): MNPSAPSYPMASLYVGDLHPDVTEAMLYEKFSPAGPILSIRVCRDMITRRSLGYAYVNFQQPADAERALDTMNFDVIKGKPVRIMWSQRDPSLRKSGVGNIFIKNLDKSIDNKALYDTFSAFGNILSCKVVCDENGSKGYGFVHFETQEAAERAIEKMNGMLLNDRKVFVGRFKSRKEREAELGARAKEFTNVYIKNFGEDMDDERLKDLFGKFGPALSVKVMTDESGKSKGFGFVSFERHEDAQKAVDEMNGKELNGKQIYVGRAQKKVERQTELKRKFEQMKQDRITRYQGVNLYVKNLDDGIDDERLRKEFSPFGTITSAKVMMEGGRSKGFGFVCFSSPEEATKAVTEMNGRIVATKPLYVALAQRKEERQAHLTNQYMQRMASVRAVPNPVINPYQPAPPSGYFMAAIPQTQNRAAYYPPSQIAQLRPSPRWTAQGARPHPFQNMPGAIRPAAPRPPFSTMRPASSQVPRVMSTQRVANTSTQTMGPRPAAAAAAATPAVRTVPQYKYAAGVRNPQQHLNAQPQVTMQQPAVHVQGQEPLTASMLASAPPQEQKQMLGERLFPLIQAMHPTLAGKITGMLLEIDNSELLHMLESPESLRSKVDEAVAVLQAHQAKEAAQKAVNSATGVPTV
CSC inhib: cancer stem cell inhibition; cancer stem cell-like cells viability, luminescence; inhibition, % at 7.5 µM; 300,000 compounds, 1.1% hits;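 active = mean at 75% or more and at least half the replicates too; inconclusive = mean and replicates disagree; tested in HMLE shEcad cells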;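 note: 0% = median of negative and 100% = median of positive control wells; the first replicate is given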
Rce1 inh: yeast Ras-converting enzyme inhibition; yeast membranes, quenched prenylated peptide cleavage fluorescence; calls only; 290,000 compounds, 0.27% hits; AID 2563;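 active = fall in fluorescence gain of 50% or more versus controls, with final raw signal at or below 3038400; inconclusive = same 50% fall but final raw signal above 3038400; inactive = fall in fluorescence gain under 50%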;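 note: plate controls were neutral control wells for no effect and wells lacking membranes for full effect; tested at 10 µM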
eIF4H inh: inhibitors of RNA binding by human eIF4H; 290,000 compounds, 0.94% hits; Q15056; inhibition, % at 35 µM; eIF4H fluorescence polarization binding assay;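 active = 50% or more with normal probe brightness, or confirmed in later tests; inconclusive = above 50% with abnormal brightness, or retests that disagree; inactive = below 50% or failed in later tests; about a fifth of its hits are not listed in these tables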;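 note: calls also rest on retests at 20 µM and on dose response follow-up; 0% = protein and probe with vehicle and 100% = probe without protein; strong numbers were not always called active; many hits fall short of the cut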
eIF4H inh retest: also measured in eIF4H inh; calls as there; inhibition, %; compound at 20 µM; confirmation average;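 mean of two retest wells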
PABP polyA inh retest: recorded beside PABP polyA inh, whose call it bears; inhibition, %; compound at 20 µM; confirmation repeats;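 mean of two retest wells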
MT1-MMP act inh RFP: also measured in MT1-MMP act inh; calls as there; RFP signal change, %; measured here: RFP expression control read;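 0 = vehicle wells; hits needed this value within 50% of zero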
Active calls of the source: *; i = inactive; ? = inconclusive; · = not tested or not shown; + = active, no number. A portion of the library; count on the stated rates, not on these rows.

SMILES	Yeast UUG start	MT1-MMP act inh	MT1-MMP act inh RFP	Env fusion inh	PABP polyA inh	CSC inhib	Rce1 inh	eIF4H inh	others
O=C(CCN1CCOCC1)NNC(=O)c1ccc([N+](=O)[O-])cc1[N+](=O)[O-]	0	3	0	-17	·	-17	·	·
COC(=O)C1(C)CCCC2(C)C3CCC(C(C)C)C(CO)C3C(CO)CC12 (stereo unspecified)	-18	-2	-3	5	·	·	·	·
O=C(NCC(O)c1ccc([N+](=O)[O-])cc1)c1cccc(S(=O)(=O)N2CCCC2)c1 (stereo unspecified)	·	5	-1	7	2	1	i	-1
CC(C)CCN1CCC(N)=NC1=O	·	0	0	-11	?	·	·	-11
COc1cccc(NC(=O)CSc2ncc(S(=O)(=O)c3ccccc3)c(=O)[nH]2)c1	-10	1	7	7	14	·	i	4
CN(C)/C=C1/C(=O)Nc2ccccc21	-7	5	4	-26	4	-10	i	2
CCCn1c(N)c(C(=O)CSc2nnc(C3CC3)n2C2CC2)c(=O)[nH]c1=O	·	3	1	24	·	10	·	·
COc1ccccc1C=NNC(=O)C(=O)NN=Cc1ccccc1OC	-14	-3	5	22	·	·	·	·
Cc1ccc(SCC(=O)OCC(=O)N(C)CC(=O)Nc2ccc(F)cc2)cc1	2	2	1	-13	·	-2	i	·
O=C(Cn1c(=O)oc2ccccc21)c1ccccc1	1	5	0	·	-8	-7	i	6
CCOc1cc(/C=C2\C(=N)N3N=C(CC)SC3=NC2=O)ccc1OCCOc1ccc(NC(C)=O)cc1	-9	-4	-2	11	11	4	i	6
CN(CC(=O)O)S(=O)(=O)/C=C/c1ccccc1	·	-4	-1	6	91	-12	i	1	eIF4H inh retest=-1;PABP polyA inh retest=-4
CC(C)(C)c1ccc(-c2nc(N)nc(N)n2)cc1	-21	2	5	-5	1	-11	i	-10
CN(C)NC(=O)c1ccsc1NC(=O)c1ccc(S(=O)(=O)N2CCCC2)cc1	-19	1	3	22	-7	-1	i	-6
O=S(=O)(NCc1ccccc1)c1ccc(Br)s1	-11	1	0	12	-5	·	i	13
S=c1[nH]nc(Nc2cccc(Cl)c2)s1	·	1	6	-46	-1	-12	i	-1
Cc1cccc2[nH]c3c(N4CCC5(CC4)OCCO5)ncnc3c12	-7	5	-14	-133	5	40	+	-2
O=C(CN1C(=O)c2cccnc2Oc2ccc(Cl)cc21)NC1CCCCCC1	-12	-2	-5	7	9	-20	i	4
N#CC1=C(S)N(c2ccccc2)C(c2ccco2)NC1=O (stereo unspecified)	·	2	8	23	1	-11	i	1
COc1ccc(S(=O)(=O)N2CCCC2)c2ccccc12	-20	1	1	6	4	-15	i	3
COc1ccc(-c2cc(C(=O)Nc3ccc(C)cc3)no2)cc1	-7	12	-3	12	-8	-12	i	-3
COc1ccc(C(C(=O)NC2CCCCC2)N(C(=O)c2snc(C(N)=O)c2N)c2ccc(OC)cc2OC)cc1 (stereo unspecified)	-21	-2	-4	-20	10	-9	+	-7
O=C(NCc1ccncc1)C(=O)NCC(c1ccccc1)c1ccccc1	·	·	·	-18	-2	58	i	-3
COc1cc(Cl)ccc1OCc1cc(C(=O)N2CCCC(OC)C2)no1 (stereo unspecified)	-15	-6	-4	-48	-2	-7	·	-2
COc1cc2ccc(C=O)cc2cc1OC	-8	6	1	12	·	·	·	·
Brc1ccc(-c2cnc(-c3cccs3)o2)cc1	-13	-3	-1	-429	6	16	i	-9
COc1ccc(-c2onc(C)c2C)cc1S(=O)(=O)NCCc1ccco1	-2	0	-9	-9	5	2	i	0
CCc1ccc(NC2=NCC(c3ccccc3)S2)cc1 (stereo unspecified)	·	-4	0	-27	28	1	i	8
COc1ccc(NS(=O)(=O)c2cccc(C(=O)NCCCn3ccnc3)c2)cc1	-2	5	1	19	·	-3	i	·
CCc1cc(-c2nnc(SCC(=O)NC3CC3)n2C)cs1	-29	-4	-1	6	7	7	i	-2

At a glance, 2 of the compounds above.
SMILES	Yeast UUG start	MT1-MMP act inh	MT1-MMP act inh RFP	Env fusion inh	PABP polyA inh	CSC inhib	Rce1 inh	eIF4H inh	others
COc1ccc(-c2cc(C(=O)Nc3ccc(C)cc3)no2)cc1	-7	12	-3	12	-8	-12	i	-3
COc1ccc(C(C(=O)NC2CCCCC2)N(C(=O)c2snc(C(N)=O)c2N)c2ccc(OC)cc2OC)cc1 (stereo unspecified)	-21	-2	-4	-20	10	-9	+	-7

Next results.
SMILES	Yeast UUG start	MT1-MMP act inh	MT1-MMP act inh RFP	Env fusion inh	PABP polyA inh	CSC inhib	Rce1 inh	eIF4H inh	others
CCCOc1ccc(/C=N\NC(=O)CCc2n[nH]c(=O)[nH]c2=O)cc1OC	-25	1	0	-9	0	7	i	-2
COc1cc(OC)c2ccc(=O)oc2c1C(CCN1CCCCC1)c1ccc(N(C)C)cc1 (stereo unspecified)	8	0	1	8	0	1	i	-14
CCCCCC(=O)NNC(=O)Cc1ccc([N+](=O)[O-])cc1	-18	1	4	7	-3	4	i	4
Cc1cc2nc(N3CCN(C(=O)c4cccs4)CC3)sc2cc1C	-6	-6	-22	-61	·	-9	i	·
CCCCCC1CC(/C(C)=N/NC(N)=O)OC1=O (stereo unspecified)	-21	6	5	·	-1	9	i	-4
Cc1ccc2c(c1)cc(CN(Cc1ccco1)C(=O)COc1ccccc1)c1nnnn12	-22	3	-10	-33	1	-9	i	-2
CCC(C)Nc1nc(OCC(F)(F)F)nc(OCC(F)(F)F)n1 (stereo unspecified)	-19	3	4	·	-5	-10	i	-14
CC(=O)Nc1ccc(S(=O)(=O)N2CCN(C(=O)N3CCCC3)CC2)cc1	·	0	0	-1	2	·	i	-10
COc1ccc(N(C(=O)c2ccccc2C)S(=O)(=O)c2cccs2)cc1	·	11	-1	35	-6	?	i	-9
c1ccc(N2CCN(c3ncnc4c3oc3ccccc34)CC2)cc1	-12	3	-4	·	3	18	i	1
O=C(c1ccco1)n1nc(-c2ccccc2)nc1SCc1ccccc1	-4	0	-1	-66	1	12	i	-8
Cn1c(=O)oc2cc(S(=O)(=O)N3CCC(C(=O)NCc4cccs4)CC3)ccc21	3	0	10	17	10	-12	i	-4
CCCCn1c(N)c(N(CC(C)C)C(=O)CN2C(=O)C3CCCCC3C2=O)c(=O)[nH]c1=O (stereo unspecified)	·	1	0	-25	·	-5	i	·
O=C(Nc1cccc(OC(F)(F)F)c1)c1ccc(Br)o1	-20	-1	-1	-27	-10	4	i	-5
O=C1NC(=Nc2ccccc2)CS1	·	2	2	0	0	-7	i	8
COCCNC(=O)CSc1nnc(CCCN2C(=O)c3cccc4cccc(c34)C2=O)n1-c1ccccc1	·	-1	-4	-7	2	-5	i	-8
COCCn1c(C)cc(/C=C2/NC(=O)N(c3ccc(Cl)cc3)C2=O)c1C	-25	1	8	·	-9	-5	i	10
CN1CCN(C(=O)CCCOc2cc(=O)n(C)c3ccccc23)CC1	-24	9	9	3	-4	-9	i	4
CN(C)c1ccc(C2C=C(c3ccc(Cl)cc3OC(F)F)Nc3ncnn32)cc1 (stereo unspecified)	-6	-138	-6	·	50	58	i	41	eIF4H inh retest=27;PABP polyA inh retest=35
C=CCc1c(C)nc(SCC(N)=O)[nH]c1=O	·	-1	1	·	4	-9	i	5
Cc1nnc(SCC(=O)N2CCC(C(=O)Nc3nccs3)CC2)n1Cc1ccccc1	-18	2	9	-40	4	·	i	-3
CCOc1cc(CN2CCCC(N3CCc4ccccc4C3)C2)ccc1O (stereo unspecified)	-8	-2	1	-10	-11	·	i	0
Nc1nnnn1/N=C/c1ccccc1OCc1ccc(Cl)cc1Cl	·	-2	3	·	-7	4	+	-15
CCOc1cc(C#N)ccc1OCC(=O)N1CCc2ccccc2C1	-2	7	5	-3	4	-13	·	-1
Clc1ccc(SCCOCCN2CCOCC2)cc1	-2	2	1	-12	2	41	i	0
CCn1c(=O)cc(SCC(=O)N2CCN(C)CC2)c2ccccc21	-17	5	9	-4	1	-11	i	-6
O=C(COC(=O)c1ccc(Br)o1)NCCCc1ccccc1	-3	8	8	·	4	4	i	2
O=C(C1CCN(S(=O)(=O)c2cccc3cccnc23)CC1)N1CCN(C2CCCC2)CC1	0	-1	7	-7	20	-6	i	4
O=C(NC1CCCCC1)N1CCCC(CNS(=O)(=O)Cc2ccccc2)C1 (stereo unspecified)	·	-2	2	16	-10	3	i	-7
O=c1c(Cc2ccccc2)c(O)ccn1C1CCCCCCC1	·	-5	-4	2	-14	-11	i	-14
Cc1ccc(C)c(N2C(=O)c3ccc(C(=O)Nc4ccccn4)cc3C2=O)c1	-15	-1	-1	5	·	·	·	·
C/C(=N\N1CCN(Cc2ccccc2Cl)CC1)c1ccc([N+](=O)[O-])cc1	-6	5	-9	6	1	-4	i	-2
Cc1ccc(S(=O)(=O)N2C[C@H]3C(=O)C[C@@H](c4ccccc4)N(S(=O)(=O)c4ccc(C)cc4)[C@H]3C[C@H]2c2cccc(Cl)c2)cc1	-1	-3	-7	0	·	·	·	·
Cc1ccc(C)c2[nH]c(=O)c(C(c3nnnn3Cc3ccco3)N3CCc4ccccc4C3)cc12 (stereo unspecified)	-10	-23	5	·	46	16	i	16
CCCS(=O)(=O)N1CCN(c2cc3c(cc2[N+](=O)[O-])n(C)c(=O)n3C)CC1	·	7	-2	23	0	9	i	3
CSc1nnc(-c2sc3cc(C(F)(F)F)cnc3c2-c2ccccn2)n1C	0	-3	-5	·	25	-9	i	15
Cc1cccc(N(Cc2cc(=O)[nH]c3ccccc23)C(=O)CCl)c1	·	-11	-4	82*	14	105*	i	-1
Cc1ccc(C(=O)C2=C(O)C(=O)N(c3ncccn3)C2c2ccccc2F)o1 (stereo unspecified)	-10	-2	7	-1	·	7	i	·

Among those listed so far, these contain a furan ring, fused or not.
SMILES	Yeast UUG start	MT1-MMP act inh	MT1-MMP act inh RFP	Env fusion inh	PABP polyA inh	CSC inhib	Rce1 inh	eIF4H inh	others
N#CC1=C(S)N(c2ccccc2)C(c2ccco2)NC1=O (stereo unspecified)	·	2	8	23	1	-11	i	1
COc1ccc(-c2onc(C)c2C)cc1S(=O)(=O)NCCc1ccco1	-2	0	-9	-9	5	2	i	0
Cc1ccc2c(c1)cc(CN(Cc1ccco1)C(=O)COc1ccccc1)c1nnnn12	-22	3	-10	-33	1	-9	i	-2
c1ccc(N2CCN(c3ncnc4c3oc3ccccc34)CC2)cc1	-12	3	-4	·	3	18	i	1
O=C(c1ccco1)n1nc(-c2ccccc2)nc1SCc1ccccc1	-4	0	-1	-66	1	12	i	-8
O=C(Nc1cccc(OC(F)(F)F)c1)c1ccc(Br)o1	-20	-1	-1	-27	-10	4	i	-5
O=C(COC(=O)c1ccc(Br)o1)NCCCc1ccccc1	-3	8	8	·	4	4	i	2
Cc1ccc(C)c2[nH]c(=O)c(C(c3nnnn3Cc3ccco3)N3CCc4ccccc4C3)cc12 (stereo unspecified)	-10	-23	5	·	46	16	i	16
Cc1ccc(C(=O)C2=C(O)C(=O)N(c3ncccn3)C2c2ccccc2F)o1 (stereo unspecified)	-10	-2	7	-1	·	7	i	·

Compound activity deposited in PubChem BioAssay by several laboratories.
